ALR H2O2 inh – inhibitors of human ALR sulfhydryl oxidase, primary screen, biochemical, H2O2 detection, HRP-luminol luminescence, single point; FAD-linked sulfhydryl oxidase ALR (Homo sapiens), P55789; purified ALR, DTT oxidation; inhibition, % (no concentration beside the values); hit rate 3.8% among 290,000;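 active means mean and each replicate at 75% or more; inconclusive means only one of the two met; inactive means neither met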;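 further: stock transfer was 7.5 nL into about 7.5 µL; 0% = neutral wells and 100% = wells with inactivated enzyme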
Target sequence (P55789 whole entry, looked up): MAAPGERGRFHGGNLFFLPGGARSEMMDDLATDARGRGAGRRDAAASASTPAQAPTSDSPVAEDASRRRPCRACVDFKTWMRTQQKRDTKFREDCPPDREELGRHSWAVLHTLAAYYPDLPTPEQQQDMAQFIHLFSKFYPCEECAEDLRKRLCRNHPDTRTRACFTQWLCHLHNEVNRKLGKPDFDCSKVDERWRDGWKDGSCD
UCH37 inh – inhibitors of human UCH37 deubiquitinase, primary screen, biochemical, Ub-AMC cleavage, fluorescence; hit rate 0.33% among 330,000; purified proteasome/UCH37; inhibition, % (no concentration beside the values);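 active means mean of two replicates above 20%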;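 further: 0% = compound-free wells with enzyme and 100% = wells lacking proteasome; stock transfer was 100 nL into about 20 µL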
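Signal – fluorescence, ex 355 nm, em 460 nm · System – Proteasome-bound UCH37 · Input – 0.15 nM proteasome as dispensed · Timing – 30 min preincubation with enzyme, 25 min cleavage at room temperature · Read-out basis – percent inhibition of cleavage signal versus uninhibited and no-proteasome wells · Medium – Tris-HCl pH 7.4 with ATP-MgCl2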
HNF4A DNA FP – change in binding of human HNF4A to DNA, primary screen, biochemical, fluorescence polarization, FITC-DNA; 1 h; activity change, % at 10 µM; hit rate 0.3% among 360,000; in the data active means activity change above about 30%, passing the limit was not always enough;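 further: controls were the assay level and a saturating level of protein; the project sought stronger binding though the title names inhibitors; some compounds called inactive have numbers as strong as hits; positive values seem to mean higher polarization but the record does not say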
LANA-H2B inh – blockers of LANA interaction with H2A/H2B – biochemical, FP readout, HTS, primary screen | AID 2629, 2010 | inhibition, % (test concentration not listed) | cell-free LANA-H2A/H2B peptide, fluorescence polarization | Protein LANA1 (Human herpesvirus 8 type P (isolate GK18)), Q9QR71 | hit rate 0.6% among 320,000; in the data active means inhibition mostly above about 10%, no sharp cut-off; inactive means mostly below about 6.7%;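 further: stock transfer was 7.5 nL into about 10 µL; 0% = median of vehicle wells and 100% = median of positive control wells; one replicate is shown; the record names a cut of 25% in any replicate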
Ecoli growth – E. coli growth inhibition, primary screen, OD600; Escherichia coli growth, 23 h; active compounds read low; OD600 absorbance (concentration not given with the values); hit rate 0.21% among 330,000;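 active means OD600 absorbance below the run mean of sample wells minus 3.6 SD, in any replicate, cut at about 0.56 in these data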;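 further: stock transfer was 300 nL into about 60 µL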
Beta2AR agonist – beta2AR agonists driving receptor internalization, primary screen, cell-based, FAP fluorogen, flow cytometry | Am2.2-beta2AR cells; reference of the scale not given here | response, % (test concentration not listed) | hit rate 0.43% among 340,000 | AID 504454, 2011;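 active means response above a set limit, near 3 SD of response in nonfluorescent compounds, cut at about 42% in these data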;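 further: stock transfer was 100 nL into about 11 µL; a reference agonist was the positive control; negative values mostly stem from fluorescent compounds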
Target sequence (P07550 whole entry, looked up): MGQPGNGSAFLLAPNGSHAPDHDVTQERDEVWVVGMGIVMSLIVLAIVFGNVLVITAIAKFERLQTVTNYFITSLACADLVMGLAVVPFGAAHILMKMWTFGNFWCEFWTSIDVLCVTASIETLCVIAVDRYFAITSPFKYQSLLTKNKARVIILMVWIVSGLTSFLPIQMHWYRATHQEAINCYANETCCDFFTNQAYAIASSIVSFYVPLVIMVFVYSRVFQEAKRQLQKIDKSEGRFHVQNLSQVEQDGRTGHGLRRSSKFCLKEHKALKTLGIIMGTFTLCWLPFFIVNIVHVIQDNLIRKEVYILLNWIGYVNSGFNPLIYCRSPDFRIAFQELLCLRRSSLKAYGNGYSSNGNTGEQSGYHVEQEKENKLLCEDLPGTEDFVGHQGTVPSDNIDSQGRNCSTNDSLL
FGF22 binding – binders of human FGF22 protein, primary screen, FGF22 synaptogenesis inhibitor project, biophysical, thermal shift, single point; recombinant FGF22 thermal shift, SYPRO orange fluorescence; percent of sucrose octasulfate shift, DMSO zero; calls only at 9.99 µM; hit rate 1.5% among 340,000;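 active means melting point raised past a set limit in the mean and every replicate; inconclusive means no clear call; three in four hits are not shown here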
Target sequence (Q9HCT0 whole entry, looked up): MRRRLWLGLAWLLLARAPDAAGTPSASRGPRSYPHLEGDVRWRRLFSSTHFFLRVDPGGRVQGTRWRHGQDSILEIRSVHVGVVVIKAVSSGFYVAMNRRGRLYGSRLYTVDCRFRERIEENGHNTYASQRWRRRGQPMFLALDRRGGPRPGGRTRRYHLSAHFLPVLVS
Active calls of the source: *; i = inactive; ? = inconclusive; . = not tested or not shown. An excerpt (hit frequency here may not be typical).

SMILES,ALR H2O2 inh,UCH37 inh,HNF4A DNA FP,LANA-H2B inh,Ecoli growth,Beta2AR agonist,FGF22 binding
COC(=O)c1ccccc1NC(=O)CSc1nc2ccccc2c(=O)[nH]1,-2,-0.6,1.5,-1.7,0.65,7,.
COc1ccc(S(=O)(=O)n2cnc3ccccc32)c(C)c1,-1,0.4,2.2,-2.5,0.66,-8,i
CNC(=O)c1ccc(Nc2nnc(-c3ccc(C)c(S(=O)(=O)NCC4CCCO4)c3)c3ccccc23)cc1 (centres undefined),-9,.,2.5,-3.6,.,-13,.
O=C(O)c1ccc(N/N=C/c2ccc(-c3cc(Cl)ccc3Cl)o2)cc1,50,.,-30,-9.5,.,15,i
CCOC(=O)Oc1ccc2c(c1)C(C)=CC(C)(C)N2C(=O)OCC,1,0.4,5.6,1.3,0.71,4,.
CC(=O)Nc1ccc(S(=O)(=O)N2CCCC(C(=O)O)C2)cc1 (centres undefined),0,0.8,1.5,-0.4,0.68,3,i
CCC(=O)OC1(C)C(=O)C=C2C=C(c3ccc(C#N)cc3)OC=C2C1=O (centres undefined),-9,-0.7,5.7,-1.8,0.66,16,i
Cc1cc(C(=O)N2CCN(S(=O)(=O)c3ccccc3C#N)CC2)c(C)o1,.,0.3,-2.6,-4.2,0.69,-3,i
O=C(NNC1CC(=O)N(c2cccc(Cl)c2)C1=O)c1cccs1 (centres undefined),13,1.8,-3.0,-3.0,0.69,0,.
O=C(CN(Cc1ccco1)C(=O)c1ccc(N2CCCC2=O)cc1)Nc1ccccc1C(F)(F)F,-1,1.3,-2.8,-7.0,0.69,1,i
COc1ccc2nc(SCC(=O)Nc3ccccc3C)[nH]c2c1,-2,0.7,2.1,-2.7,0.69,-8,.
Cc1nnc(SCC(=O)Nc2cccc(Br)c2)s1,-1,-0.6,0.9,-0.6,0.64,-2,i
CN(C)C(CNC(=O)NC1CCCCC1)c1cccnc1 (centres undefined),-4,5.0,2.0,5.9,0.73,-1,.
CSc1ccccc1C(=O)Nc1ccccc1C(=O)NC(C)C,4,4.0,-3.3,0.7,0.71,5,i
CCN(CC)CCCNc1nnc(C)c(=O)[nH]1,-14,3.8,-2.2,-1.2,0.72,0,.
Cc1ccc(S(=O)(=O)CCC(=O)NCCc2ccccc2)cc1,1,4.5,-0.7,0.4,0.61,2,i
COc1ccccc1C(=O)NCCC(=O)Nc1ccc(S(=O)(=O)N2C(C)CCCC2C)cc1 (centres undefined),0,6.4,-4.2,i,0.64,1,i
CC(=O)Nc1ccc(NC(=O)COC(=O)COc2ccc3ccccc3c2)cc1,-8,0.3,6.4,11,0.67,-6,i
CC(=O)c1cc2c(cc1NC(=O)CN1CCCCCCC1)OCO2,.,0.8,-0.4,-5.5,0.71,-2,.
CCOc1ccccc1C1CC(=O)Nc2c1c(=O)n(C)c(=O)n2C (centres undefined),-10,5.0,2.4,-1.5,0.73,-4,i
O=S1(=O)CCN(Cc2ccc(Cl)c(C(F)(F)F)c2)CC1,-3,2.8,-2.2,1.3,0.7,-4,.
O=C1Nc2cc(C(=O)NCCN3CCCCCC3)ccc2S/C1=C\c1ccccc1,-5,2.7,5.4,1.8,0.71,8,i
CCc1nn2c(=O)c(S(=O)(=O)Nc3ccc(C(C)C)cc3)c(C)nc2s1,-3,3.7,0.1,-2.3,0.72,4,i
O=C1C=C(Nc2ccc(Cl)cc2)C(=O)N1c1ccc(Cl)cc1,5,0.9,-5.2,2.3,0.65,-5,i
CN(CCOc1ccccc1)C(=O)c1cc([N+](=O)[O-])ccc1N1CCOCC1,.,8.0,-1.1,.,0.64,-3,i
O=C(O)c1ccc(N2CCc3ccccc32)c([N+](=O)[O-])c1,32,7.2,4.9,-2.3,0.61,11,i
CC1CCN(S(=O)(=O)c2cccc(C(=O)NCC3CCCO3)c2)CC1 (centres undefined),-4,1.9,0.6,1.6,0.69,-4,i
COc1ccc(C)cc1NC(=O)c1cc2c(s1)CCC2,94*,-0.6,0.0,-0.4,0.64,-5,.
O=C(NCc1ccccc1)/C(=N\O)c1ccccc1,-4,.,2.8,0.5,.,3,.
Cc1cc(C)c(C#N)c(SCc2cn3c(C)cccc3n2)n1,0,2.7,-0.7,-1.6,0.7,-15,.

The last 2 records of the part above come first, to join the parts:
SMILES,ALR H2O2 inh,UCH37 inh,HNF4A DNA FP,LANA-H2B inh,Ecoli growth,Beta2AR agonist,FGF22 binding
O=C(NCc1ccccc1)/C(=N\O)c1ccccc1,-4,.,2.8,0.5,.,3,.
Cc1cc(C)c(C#N)c(SCc2cn3c(C)cccc3n2)n1,0,2.7,-0.7,-1.6,0.7,-15,.
O=Cc1cccn1-c1ccc2ccccc2c1,-6,3.5,7.0,-0.2,0.68,-11,i
Cc1ccc(F)cc1NC(=O)C12CC3CC(C1)CC(n1cnc([N+](=O)[O-])n1)(C3)C2,-32,0.7,-1.7,-2.8,0.75,-12,.
Cn1c(=O)c2c(C(=O)O)cc(-c3ccccc3)nc2n(Cc2ccccc2)c1=O,-1,-10,-6.0,-0.5,0.71,-11,i
CCCCN(CCCC)c1nc2ccccc2nc1NS(=O)(=O)c1ccc(NC(C)=O)cc1,-9,-339,0.7,0.5,0.72,119*,.
O=C(NC1CCN(Cc2ccccc2)CC1)c1cc(Br)c(Br)[nH]1,-4,3.4,2.5,-4.1,0.67,6,i
N#Cc1c(-c2ccc(F)cc2)noc1N,-5,5.0,0.7,-0.2,0.71,-31,.
COc1cc(SC)ccc1C(=O)NCCOc1ccccc1Cl,26,3.8,1.0,1.4,0.69,-15,.
CC(NC(=O)c1ccco1)C(=O)N1CCN(C(c2ccccc2)c2ccccc2)CC1 (centres undefined),-5,0.5,0.9,9.6,0.72,2,i
O=C(Nc1ccccc1)Nc1csc2ccccc12,-9,3.3,-3.3,-1.0,0.53,6,i
CC(C)Cc1nnc(NC(=O)CN2C(=O)c3ccccc3C2=O)s1,-3,-0.5,6.5,-2.8,0.67,1,i
Cc1ccc2cc(C3CC(c4ccco4)=NN3C(=O)CCC(=O)O)c(Cl)nc2c1 (centres undefined),1,1.0,2.8,-4.3,0.63,5,.
Cc1ccc(C(=O)Nc2ccc(C(=O)/C=C/c3cccs3)cc2)cc1,-5,2.9,-3.7,6.0,0.75,12,.
Cc1ccc(-c2ccnc3nc(-n4cccc4)nn23)o1,-1,-19,3.3,6.1,0.69,-10,.
CSc1nnc(C)c(=O)n1COC(=O)COc1ccc2ccccc2c1,.,1.2,-3.9,-0.2,0.7,5,.
Cn1cnnc1Sc1nc2c(c(=O)n(C)c(=O)n2C)n1C,-15,0.3,.,4.3,0.65,.,.
O=C(Nc1ccccc1)C1CCCN1/C=C/C(=O)C(F)(F)F (centres undefined),-2,9.5,1.1,0.3,0.7,-1,i
CCN(CC)c1ccc(NC(=O)CSc2nc3ccccc3c(=O)[nH]2)cc1,?,6.6,-0.2,4.9,0.78,-1,.
CCOC(=O)C1CCN(C(=O)c2ccc3nc(-c4ccc(OC)cc4)c(-c4ccc(OC)cc4)nc3c2)CC1,-5,-140,1.2,2.0,0.69,12,i
COc1ccc(NS(=O)(=O)c2cc(NC(=O)CCNC(C)=O)ccc2N2CCOCC2)cc1,-5,3.1,1.0,-1.9,0.68,-1,i
N/C(=N\c1nc(CSc2ccccn2)cc(=O)[nH]1)Nc1ccc(Cl)cc1Cl,-8,-1.0,5.2,-2.7,0.76,-10,i
COc1ccc(-n2nc([N+](=O)[O-])c(=NCCCN3CCCC3=O)n2O)cc1,-24,5.6,6.7,1.9,0.68,-2,i
Cc1ccc(CN2CC(C(=O)N3CCN(c4ccccc4O)CC3)CC2=O)cc1 (centres undefined),67,-0.5,0.1,-5.0,0.61,6,i
O=C(Nc1nc2ccccc2[nH]1)c1cccc(F)c1,-11,4.8,-0.6,-6.5,0.66,-7,i
Cc1cnc(NC(=O)CSc2nnc(C)s2)s1,-1,3.8,1.7,0.7,0.67,-3,.
O=[N+]([O-])c1ccc2nc(-c3ccc(OC(F)F)cc3)cn2c1,-8,4.3,1.7,1.3,0.71,4,i
CC(=O)c1cccc(-c2ccc3c(=O)[nH]c(Nc4ccccc4)cc3c2)c1,-117,31*,12,0.1,0.68,6,i
Cc1ccc(C(=O)COc2ccc3c(C)cc(=O)oc3c2)cc1,-12,-5.9,1.6,0.6,0.62,3,i
Fc1ccc(C2CCCN2Cc2nc(Cc3ccccc3F)no2)cc1 (centres undefined),-5,4.9,-1.2,-9.8,0.71,-9,i
CCOC(=O)NC(=O)COC(=O)Cc1cc(OC)c(OC)c(OC)c1,0,-0.8,-3.9,-5.7,0.75,-5,.
Cc1ccc(N2CC(C(=O)Nc3cc(Cl)ccc3-n3cncn3)CC2=O)cc1 (centres undefined),-10,0.4,5.8,0.9,0.61,-5,i
Cc1c([N+](=O)[O-])cc(C(=O)Nc2ccc3ncccc3c2)cc1[N+](=O)[O-],.,0.7,1.0,-2.6,0.61,0,i
Cc1cc(SCc2cc(=O)n3ccsc3n2)nc2ccccc12,-6,2.1,-3.0,1.4,0.68,1,.
c1ccc(COc2ccc(OCCN3CCCCC3)cc2)cc1,-6,.,-0.8,0.7,.,-4,i
COc1ccc(NC(=O)N2CCN(S(C)(=O)=O)CC2)c(OC)c1,-28,-1.1,2.7,-3.4,0.71,6,i
CCOC(=O)C1CCN(C(=O)c2oc3ccc(S(=O)(=O)N4CC(C)CC(C)C4)cc3c2C)CC1 (centres undefined),6,2.8,-0.7,0.7,0.71,12,.

Complete entries, quoted from the list. Order of screens: ALR H2O2 inh | UCH37 inh | HNF4A DNA FP | LANA-H2B inh | Ecoli growth | Beta2AR agonist | FGF22 binding
`CC1CCN(S(=O)(=O)c2cccc(C(=O)NCC3CCCO3)c2)CC1` (centres undefined) as listed: -4 | 1.9 | 0.6 | 1.6 | 0.69 | -4 | i
`COc1ccccc1C(=O)NCCC(=O)Nc1ccc(S(=O)(=O)N2C(C)CCCC2C)cc1` (centres undefined) as listed: 0 | 6.4 | -4.2 | i | 0.64 | 1 | i
